Assay outcomes: PubChem BioAssay, National Center for Advancing Translational Sciences (NCATS)
Sfp PPTase inh = blocks B. subtilis Sfp PPTase activity; Q9F4F7; actives 3.5% (n = 310,000); Biochemical Sfp PPTase activity, qHTS; Potency, µM, for the others: max response, negative = inhibition, hits mostly inhibitors; active means well fitted inhibition curve with a large enough effect; inconclusive means small, poorly fitted or top-dose-only effect, or another doubt; inactive means no such curve, though single readings can be large or run the other way;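 further: the enzyme is Sfp with the accession as filed and its product quenches rhodamine fluorescence; potency means the concentration at half of the fitted maximal effect; 0% = enzyme reaction without inhibitor and -100% = no enzyme wells; top concentration of the series not given in the record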
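Buffer: 50 mM Hepes-Na pH 7.6, 10 mM MgCl2, 0.01% Nonidet P-40, 0.01% BSA. Enzyme 15 nM, pre-exposed to compound 15 min; substrates then added and fluorescence change tracked over 30 min.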
Menin MLL FP FL = displaces fluorescein MLL peptide from human menin; FP activity change, % at 61.4 µM; 290,000 tested, under 10 active; Fluorescence polarization, fluorescein-MLL peptide displacement from menin; inconclusive = falling polarisation curve, or a change in total fluorescence; inactive = total fluorescence flat and polarisation flat or rising; no compound was filed as active; the % refers to the polarisation; negative = inhibition;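 further: % of control where 0% means no effect; inhibitors lower the polarisation; unlabelled MLL peptide was the positive control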
PINK1 expr mod = modulators of PINK1 expression | Potency, µM (top dose mostly 76.6 µM), for inactives: top-dose activation (PINK1 increase), hits mostly activators | PINK1 immunofluorescence, high-content cytometry, 24 h | actives 0.2% (n = 410,000); active = well fitted activation curve with a large enough effect; inconclusive = small, poorly fitted or top-dose-only effect; inactive = flat fitted curve, though single readings scatter; cell line not stated here;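 further: potency means the concentration at half of the fitted maximal effect; % of control where 0% means no effect; nearly all actives have a fitted effect of over 65% in size; a mitochondrial uncoupler was the plate control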
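Compound titrations (5 concentrations, 24 h) on a stable cell line; DMSO and CCCP controls. Endpoint: fixed-cell PINK1 immunofluorescence with mitochondrial, cell and nuclear markers, scanned by microplate cytometer.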
TRPV1 PAM = potentiators of human vanilloid receptor 1 (TRPV1) | Q8NER1 | TRPV1-expressing cells, Fluo-8 calcium influx, capsaicin EC20 potentiation; host cell line not named in the record; control for the full effect not named in the record | potentiation, % at 8.33 µM | actives 0.02% (n = 320,000); active means potentiation above 80%; inconclusive means 30% to 80%; inactive means below 30%; further: 0% is about no effect
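Cells expressing TRPV1 were dye-loaded with Fluo-8 and read kinetically: 10 s baseline, 3 min after compound (agonist portion), then 2 min after EC20 capsaicin (allosteric enhancer portion). Calcium-bound dye fluorescence at 480/520 nm.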
ClpP mod = qHTS Assay for Activators of ClpP | ATP-dependent Clp protease proteolytic subunit (Bacillus subtilis (strain 168)), P80244 | actives 1.9% (n = 340,000) | Potency, µM (series often up to 57.5 µM), inactives show top-dose activity change, negative = active | purified B. subtilis ClpP, FRET peptide cleavage, 20 min; active = well fitted falling curve with a large enough effect; inconclusive = small, poorly fitted or top-dose-only effect; inactive = no such curve, though single readings can be large or run the other way; further: potency means the concentration at half of the fitted maximal effect; the source files actives as falling curves though it sought activators and does not explain the sign; nearly all actives have a fitted effect of over 65% in size; many hits overshoot -100%
Target sequence (P80244 whole entry, looked up): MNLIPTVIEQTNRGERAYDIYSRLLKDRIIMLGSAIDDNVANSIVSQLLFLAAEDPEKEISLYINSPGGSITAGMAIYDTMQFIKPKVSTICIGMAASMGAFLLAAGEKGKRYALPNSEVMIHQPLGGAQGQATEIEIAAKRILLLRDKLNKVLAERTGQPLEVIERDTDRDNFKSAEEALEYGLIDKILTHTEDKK
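FRET quenching reversal measured ClpP activation: 10 microg/mL B. subtilis ClpP at pH 8 with the FRET-FV decapeptide, read at 430 nm after 320 nm excitation. The 20-min minus 0-min signal was scaled between DMSO/no-enzyme wells and ADEP (5.8 microM final).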
TRPML1 blocker = inhibitors of human TRPML1 channel; Q9GZU1; TRPML1-inducible cells, Ca2+ dye fluorescence, FDSS; hits give low values; inhibition of EC80 agonist-evoked calcium signal; activity change, negative = inhibition, % (test concentration not listed); actives 0.02% (n = 390,000); AID 624415; in the data active means activity change below about -50%; inconclusive means about -30% to -50%; inactive means above about -30%;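 further: stimulus is agonist 54-4 at its EC80 concentration; on the % scale 0 is the no-effect control and ±100 the full control effect; compound concentration not given in the record; the text of the record puts the active cut at -80%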
Target sequence (Q9GZU1 whole entry, looked up): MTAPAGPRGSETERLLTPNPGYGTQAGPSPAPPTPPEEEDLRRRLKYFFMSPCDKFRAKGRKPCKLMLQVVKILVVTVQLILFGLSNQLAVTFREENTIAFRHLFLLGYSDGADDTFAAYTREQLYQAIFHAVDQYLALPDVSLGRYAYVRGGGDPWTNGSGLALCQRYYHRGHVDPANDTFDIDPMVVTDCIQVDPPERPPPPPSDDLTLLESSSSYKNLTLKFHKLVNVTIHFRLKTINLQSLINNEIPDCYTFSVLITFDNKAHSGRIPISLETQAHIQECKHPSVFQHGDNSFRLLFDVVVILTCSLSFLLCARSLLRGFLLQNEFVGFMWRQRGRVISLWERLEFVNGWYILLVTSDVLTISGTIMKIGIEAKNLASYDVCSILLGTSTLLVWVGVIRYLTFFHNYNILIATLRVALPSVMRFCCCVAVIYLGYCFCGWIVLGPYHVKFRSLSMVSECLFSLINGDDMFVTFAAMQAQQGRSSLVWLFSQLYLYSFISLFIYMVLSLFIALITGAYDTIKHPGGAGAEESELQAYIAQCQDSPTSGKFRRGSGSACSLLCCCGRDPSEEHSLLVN
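TRPML1-DL cells, Tet-induced overnight (~16 h, 37 °C) at 1,500 cells/well, were loaded with Ca8 no-wash dye plus quencher for 45-90 min at room temperature. Compounds were pinned during FDSS kinetic reading; agonist 54-4 at EC80 (4 uM final) then added.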
TRPML1 ag = activates the human TRPML1 channel; activation, % (no concentration beside the values); Q9GZU1; AID 624414; TRPML1-expressing cells, Ca2+ dye fluorescence, FDSS; host cell line not named in the record; reference of the full effect not given here; actives 0.12% (n = 410,000); in the data active = activation above about 50%; inconclusive = about 30% to 50%; inactive = below about 30%; further: 0% is about no effect; the text of the record puts the active cut at 80%
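Kinetic FDSS Ca2+ read in Tet-induced TRPML1-DL cells (ABD Ca8 dye plus quencher, 45-90 min RT loading): baseline, then compound, then 110 s agonist window; EC80 agonist 54-4 at 4uM final added afterwards for a 110 s antagonist window.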
Active calls of the source: *; ? = inconclusive; . = no result given; & = joins results of further samples; [ ] = remark or other dose.

SMILES | Sfp PPTase inh | Menin MLL FP FL | PINK1 expr mod | TRPV1 PAM | ClpP mod | TRPML1 blocker | TRPML1 ag
CCN(C(=O)COC(=O)c1oc2ccc(OC)cc2c1C)C1CCCCC1 | . | . | -0.3% | 8.3 | ? | -1.1 | 0.2
CC(C)(C)OC(=O)C[C@@H]1C/C=C\C[C@@H](CC(=O)N[C@@H](CO)Cc2ccccc2)C(=O)N2CCC[C@@H]2COC1=O | . | . | -0.6% | . | 2.2% | -7.7 | -0.5
COc1ccc(N2CCC(CNC(=O)Nc3ccc(Cl)cc3)C2)cc1 (stereo not given) | -0.8% | -0.5 | ? | -10.9 | -8.6% | -1.3 | -0.4
O=C(COC(=O)CNC(=O)c1ccccc1F)Nc1ccc2c(c1)OCCO2 | 1.8% | 2.3 | 4.5% | -6.4 | -0.7% | 12.8 | -0.4
COC(=O)c1cccc(-n2c(C)cc(C=O)c2C)c1 | -1.1% | . | -0.2% | -5.9 | 1.0% | -22.3 | 0.4
COc1cc(/C=N/NC(=O)c2ccc(O)cc2)ccc1OCC(=O)Nc1cccc([N+](=O)[O-])c1 | 18.3% | -0.3 | 7.6% | 12.1 | -1.8% | 2.4 | 1.4
CCC1(C(=O)OC)CCc2c(cc(OC)c3ccccc23)C1=O (stereo not given) | 2.7% | 4.6 | 0.6% | -6.2 | . | 29.1 | 0.3
C[C@@H](CN1C(=O)C(=O)NC[C@@H]1Cc1ccc(O)cc1)NC(=O)Cc1ccccc1 | 16.8% | -0.5 | -0.3% | 26.6 | 0.1% | 10.7 | -0.4
COCCN1C(=O)c2[nH]nc(-c3ccccc3O)c2C1c1ccc(OC)cc1 (stereo not given) | 2.5% | 1.2 | 0.5% | -9.1 | . | 20.3 | -0.2
CCn1c(CSc2nc3ccccc3s2)nc2ccccc21 | -16.5% | -0.5 | -4.1% | -1.6 | ? | 3.7 | 3.8
CC(O)CNC(=O)Cc1cc(=O)[nH]c(=O)[nH]1 (stereo not given) | 12.5% | -5.1 | -0.2% | -3.3 | -1.3% | -4.3 | -0.2
O=C(Nc1cccc(NC(=O)c2cccs2)c1)c1ccc(F)cc1 | 11.5% | -3.7 | 0.9% | -12.1 | . | 31.1 | 0.2
COc1cc(NC(=O)c2cc(S(=O)(=O)N3CCc4ccccc43)cn2C)cc(OC)c1OC | 3.1% | . | 3.2%&3.1% | 7.8 | -2.3%&-12.8% | 42.6&14.8 | -0.7&-0.1
CC1(C)SC2c3ccccc3C(=O)N2[C@@H]1C(=O)O (stereo not given in full) | 12.6% | -2.8 | 5.0% | 6.4 | 0.9% | -1.9 | -0.2
Cc1ccnc(SCCn2c(N3CCN(c4ccccc4)CC3)nc3c2c(=O)[nH]c(=O)n3C)n1 | 17.6% | 1.5 | -0.1% | 12.6 | -2.5% | -8.7 | 0.1
C=C(C)C(=O)Nc1cccc(C2=NOC3(C2)C[C@@H](C(N)=O)N(C(=O)/C=C/C=C/C)C3)c1 (stereo not given in full) | 31.6µM* | -1.5 | 0.8% | -21.0 | 1.6% | 30.4 | -0.2
Cc1ccc(CNC(=O)c2ccc(-n3cnc4cccnc43)cc2)cc1 | . | . | -0.8% | . | -0.7% | 6.7 | 0.9
N#Cc1ccc(N2CCN(C(=O)c3cccc(F)c3)CC2)c(F)c1 | 20.7% | 3.4 | 0.0% | 6.8 | -3.5% | 6.9 | 0.5
COc1ccc2c(c1)CCc1sc(NC(=O)c3cccc(Br)c3)nc1-2 | . | . | 0.1% | . | ? | 23.5 | 0.6
COc1ccccc1CNC(=O)c1cccc(S(=O)(=O)N2CCN(C)CC2)c1 | 12.3% | -3.2 | -0.3% | 2.5 | . | 4.1 | -0.6
O=C(NC1CC1)c1ccc2c(c1)N(Cc1ccc(Cl)cc1)CCS2 | 8.3% | 1.7 | -1.2% | 0.3 | 3.7% | 39.8 | 1.0
CCn1c(C(=O)NCCCN2CCc3ccccc3C2)cc2sccc21 | -19.5% | -0.2 | -3.3%[38.3 µM] | 5.1 | 5.6% | 16.7 | 0.5
O=C(NCCCn1ccnc1)c1ccc(OCC(F)(F)F)cc1 | 7.7% | 5.0 | 2.5% | 4.6 | -0.1% | 15.6 | -1.0
CCOC(=O)c1cc(NC(=O)c2ccc(F)cc2)c(=O)n2c1oc1ccccc12 | . | . | 2.0% | . | -4.7% | -8.2 | 2.3
COc1ccc(CNC(=O)c2ccc(-n3cncn3)c3ccoc23)cc1OC | . | . | 2.4% | . | -2.4% | -15.3 | 1.6
Later entries
SMILES | Sfp PPTase inh | Menin MLL FP FL | PINK1 expr mod | TRPV1 PAM | ClpP mod | TRPML1 blocker | TRPML1 ag
CCc1nc2ccccc2n1CC(C)C(=O)O (stereo not given) | 10.6% | -0.2 | -0.4%[38.3 µM] | -9.2 | -0.6% | -9.9 | -0.3
CN(C)/C=C/c1[nH]c(=O)[nH]c(=O)c1[N+](=O)[O-] | -6.4% | 2.9 | -0.2% | 14.2 | 0.0% | -5.0 | -0.7
Cc1c(C(=O)NCC2CC2)sc(=O)n1Cc1cccc(F)c1 | . | . | 0.0% | . | -1.2% | . | -0.7
O=C(c1cc(-c2ccco2)on1)N1CCN(C(c2ccccc2)c2ccccc2)CC1 | -1.4% | 22.1 | 14.8%[38.3 µM] | 1.0 | 0.1% | 1.4 | 1.4
COC(=O)c1ccc(NC(=S)NC(=O)c2cccnc2)cc1 | 89.1µM* | 0.2 | -0.7% | -12.3 | . | -1.7 | -0.3
Cc1ccccc1NC(=O)COC(=O)c1ccccc1OCC(=O)Nc1ccc(Br)cc1 | . | . | 0.0% | . | -1.5% | . | -0.4
CCCN(C(=O)COC(=O)c1nc2nccc(C)n2n1)C1CCS(=O)(=O)C1 (stereo not given) | . | . | 0.0% | . | . | -10.3 | 7.6
Cc1[nH]n(-c2ccccc2)c(=O)c1/C=N/NC(=O)c1ccc(O)cc1O | 6.6% | 8.3 | 0.5% | -18.4 | 4.6% | 25.8 | 4.4
Cc1ccc(OCCN(C)C(=O)C2CCC(=O)N(Cc3ccccc3F)C2)cc1 (stereo not given) | 2.7% | . | 1.8% | -3.9 | 1.3% | -1.9 | -0.4
c1ccc(-c2sc3ccccc3c2-c2ccc(OCCN3CCOCC3)cc2)cc1 | . | . | 2.6% | . | 31.6µM* | 22.5 | 0.8
O=C(Oc1ccc(/C=N/NC(=O)c2ccccc2F)cc1)c1ccccc1 | 12.0% | 0.7 | 1.7% | 2.7 | -0.1% | 14.5 | 0.1
COc1ccc(OCC(=O)N/N=C/c2ccsc2)cc1 | 7.5% | -1.3 | 0.6% | -6.6 | -2.5% | 18.7 | 0.5
ClC(=C\c1ccccc1)/C=N/N1CCN(c2ccccn2)CC1 | ? | 0.9 | 16.6% | -33.8 | 1.4% | -2.5 | -1.7
Cc1cccc(-c2noc(-c3ccc(N4CCOCC4)c([N+](=O)[O-])c3)n2)c1 | . | . | 0.1% | . | 1.6% | 2.0 | -0.5
C/C=C/NNC(=O)Cc1ccc(OC)cc1 | . | . | 7.3% | . | -0.3% | . | -0.9
CCN(CC)c1nc(Nc2ccccc2)nc(Oc2ccc(=O)[nH]n2)n1 | -21.1% | -1.7 | -2.9%[38.3 µM] | -20.2 | -1.8% | -29.9 | 1.0
O=C(Nc1ccc(NC(=O)c2ccc3c(c2)OCO3)cc1)c1cccc(Cl)c1 | . | . | 0.0% | -6.8 | -6.2% | -9.2 | -0.2
O=C(CCc1ccc(S(=O)(=O)N2CCOCC2)cc1)N1CCN(Cc2ccc3c(c2)OCO3)CC1 | 2.3% | 3.0 | -3.1% | -5.0 | -2.0% | 6.7 | 3.8
CCn1c(SCC(=O)Nc2ccc(N3CCOCC3)cc2)nnc1C1CC1 | . | . | -1.2% | -2.3 | -2.2% | 12.2 | -0.6
Cc1ccc(Cl)cc1N(C)C(=O)c1cc2c(Cl)nc3ccccc3c2s1 | . | . | 1.0% | . | 1.5% | -22.4 | -0.8
O=C(Nc1ccccc1Cc1ccccc1)c1oc2ccccc2c1COc1ccccc1 | 5.7% | 5.0 | 1.1% | 5.8 | 28.2µM* | -7.2 | 0.8
Nc1cc(C2CCCC2)nn1-c1ccccc1 | 1.9% | 0.0 | -2.1% | -2.7 | ? | 1.4 | -1.6
Cc1c(Cl)cccc1N=Cc1ccc([N+](=O)[O-])s1 | -0.2% | 2.7 | 5.8%[38.3 µM] | 6.2 | 1.6% | 1.1 | -0.4
COc1ccc(N2CCN(S(=O)(=O)c3ccc(OC)c(C(=O)N4CCCCC4)c3)CC2)cc1 | 15.9% | -0.2 | 0.9% | -8.5 | . | 2.3 | -0.1
CCOc1ccc(C(=O)N2CCN=C2SC)cc1OCC | -0.7% | -1.5 | 0.0% | -6.5 | -0.8% | -7.6 | 1.9
The results go on.
SMILES | Sfp PPTase inh | Menin MLL FP FL | PINK1 expr mod | TRPV1 PAM | ClpP mod | TRPML1 blocker | TRPML1 ag
COC(=O)c1nnn(-c2nonc2N)c1CN1CCc2ccccc21 | 3.4% | -1.1 | 3.1% | 3.5 | -3.4% | -9.5 | 1.5
COc1cccc(C2c3c(oc4ccccc4c3=O)C(=O)N2CCCN2CCOCC2)c1 (stereo not given) | 12.1% | -1.0 | -1.7% | 18.6 | -0.3% | 5.8 | 0.5
COc1ccc(CCNC(=O)CSc2nnc(-c3ccco3)c(-c3ccco3)n2)cc1OC | 20µM* | -12.2 | . | -0.3 | . | . | .
Cc1ccc(NC(=S)NCc2ccc3c(c2)OCO3)c(C)c1 | 18.5% | 0.0 | 1.2% | -11.0 | -0.5% | -6.0 | 3.2
COc1ccc(N(CC(=O)NC2CCCCC2)C(=O)CNC(=O)c2ccco2)c(OC)c1 | 9.8% | 5.1 | 1.6% | 24.0 | -0.8% | 4.3 | -0.4
COC(=O)c1sccc1NC(=O)CSc1ccccc1NS(=O)(=O)c1ccc(Br)cc1 | 11.3% | 0.0 | -3.1% | 9.9 | -12.0% | 6.7 | 1.4
N#CCCN(C(=O)COC(=O)C1=COCCO1)c1ccc(F)cc1 | . | . | -1.3% | 1.6 | ? | -5.9 | 0.0
COc1ccc(C)cc1S(=O)(=O)N(CC(=O)O)c1ccccc1 | 20.7% | -0.2 | 0.6% | -1.5 | -0.3% | 7.0 | -0.5
